# Bioassay records from PubChem.
# TRPV1 potentiator – HTS Assay for Compounds that Act as Potentiators of the Vanilloid Receptor 1; Transient receptor potential cation channel subfamily V member 1 (Homo sapiens), Q8NER1; potentiation, % at 8.33 µM; TRPV1-expressing cells, Fluo-8 calcium influx, capsaicin EC20 potentiation; host cell line not named in the record; control for the full effect not named in the record; hit rate 0.02% among 320,000; AID 540277, 2011; active means potentiation above 80%; inconclusive means 30% to 80%; inactive means below 30%; note: 0% is about no effect
#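 TRPV1-expressing cells were cultured overnight at 35.5C and loaded with Fluo-8 calcium dye for 40 to 90 min at room temperature. After a 10 s baseline, compound was added and calcium influx was read kinetically for 3 min (ex 480/em 520 nm).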
# PINK1 expr mod – A Quantitative High throughput Screen to Identify Chemical Modulators of PINK1 Expression; PINK1 immunofluorescence, high-content cytometry, 24 h; Potency, µM (doses to about 76.6 µM), inactives show top-dose activation (PINK1 increase), most hits filed as activators; hit rate 0.2% among 410,000; active = well fitted activation curve with a large enough effect; inconclusive = small, poorly fitted or top-dose-only effect; inactive = flat fitted curve, though single readings scatter; cell line not stated here;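 note: potency is the fitted concentration of half-maximal effect; % of control where 0% means no effect; nearly all actives have a fitted effect of over 65% in size; a mitochondrial uncoupler was the plate control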
#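 Cells are seeded, rested 12 hours, then given compound at five concentrations or DMSO for 24 hours. After fixation, blocking and antibody staining, PINK1 amount and mitochondrial localization are scored; CCCP serves as control.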
# CtBP-E1A inh – qHTS Assay for Inhibitors of the CtBP/E1A Interaction; CtBP / adenovirus E1A interaction (AlphaScreen); AID 651724, 2012; activity change, % (test concentration not listed); hit rate 0.49% among 340,000; AlphaScreen GST-E1A/His-CtBP binding, 1536-well; hits give low values; control for the full effect not named in the record; in the data active means activity change below about -65%; inconclusive means about -30% to -65%; inactive means above about -30%; note: % is set by controls: 0 for no effect and ±100 for the full control effect; compound concentration not given in the record
#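 AlphaScreen with 125 nM GST-E1A and 125 nM His-CtBP (5X stocks) in Tris pH 8.0, 300 mM NaCl, BSA, Tween 20, TCEP. Compounds preincubated 2 h at 37 deg C, then glutathione donor/nickel acceptor beads added for 1 h at 37 deg C in dark.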
# Sfp PPTase inh – qHTS Assay for Inhibitors of Bacillus subtilis Sfp phosphopantetheinyl transferase (PPTase). hit rate 3.5% among 310,000. Potency, µM, for the others: max response, negative = inhibition, most hits filed as inhibitors. Biochemical Sfp PPTase activity, qHTS; active = well fitted inhibition curve with a large enough effect; inconclusive = small, poorly fitted or top-dose-only effect, or another doubt; inactive = no such curve, though single readings can be large or run the other way;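 note: the enzyme is Sfp with the accession as filed and its product quenches rhodamine fluorescence; potency is the fitted concentration of half-maximal effect; 0% = enzyme reaction without inhibitor and -100% = no enzyme wells; top concentration of the series not given in the record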
#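 With Hepes-Na pH 7.6 buffer containing 10 mM MgCl2, Sfp (15 nM) modified BHQ-2-YbbR (12.5 uM) using rhodamine-CoA (5 uM). Two reads 30 minutes apart at 525/598 nm yielded each well's rate.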
# D2 PAM – Beta-Arrestin HTS for Positive Allosteric Modulators of the Human D2 Dopamine Receptor: Potentiators; D(2) dopamine receptor (Homo sapiens), P14416; DiscoveRx D2 beta-arrestin cells, luminescence, 90 min; 100% = 57 uM dopamine signal; potentiation, % (no concentration beside the values); hit rate 0.23% among 360,000; AID 624464, 2012; active = potentiation of 50% or more; inconclusive = 30% to 50%; inactive = 30% or less;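 note: compound concentration not given in the record; tested on top of an EC20 dose of dopamine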
# Target sequence (P14416 whole entry, looked up): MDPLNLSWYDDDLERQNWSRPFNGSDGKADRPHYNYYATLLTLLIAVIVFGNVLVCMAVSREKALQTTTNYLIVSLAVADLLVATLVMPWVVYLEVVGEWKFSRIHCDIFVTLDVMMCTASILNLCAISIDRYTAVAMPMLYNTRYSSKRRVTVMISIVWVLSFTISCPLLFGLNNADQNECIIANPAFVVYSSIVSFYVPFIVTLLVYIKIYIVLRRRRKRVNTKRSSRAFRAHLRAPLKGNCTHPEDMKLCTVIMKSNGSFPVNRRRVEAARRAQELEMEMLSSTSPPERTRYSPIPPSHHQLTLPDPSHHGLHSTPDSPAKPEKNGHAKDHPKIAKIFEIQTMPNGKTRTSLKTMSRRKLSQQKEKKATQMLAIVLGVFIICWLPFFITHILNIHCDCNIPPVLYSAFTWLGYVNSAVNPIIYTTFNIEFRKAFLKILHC
#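 PathHunter D2 cells, attached overnight at 37 deg C, received compound in DMSO plus dopamine at EC20 (50 nM final) for 90 min at 37 deg C. Beta-arrestin recruitment was read as luminescence after 1 h with detection reagent at ambient temperature.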
# D2 agonist – Beta-Arrestin HTS for Positive Allosteric Modulators of the Human D2 Dopamine Receptor: Agonists | D(2) dopamine receptor (Homo sapiens), P14416 | DiscoveRx PathHunter D2 beta-arrestin, luminescence, 90 min; 100% = 57 uM dopamine signal | activation, % (concentration not given with the values) | hit rate 0.084% among 360,000 | AID 624465, 2012; in the data active = activation above about 40%; inconclusive = about 15% to 40%; inactive = below about 15%; note: compound concentration not given in the record; the text of the record calls up to 30% inactive
#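 DiscoveRx PathHunter D2 beta-arrestin cells (2,100/well) attached overnight, then compound-stimulated 90 min at 37 C in HBSS/10 mM HEPES/0.1% Tween-20 buffer; beta-galactosidase complementation read by luminescence after 1 h at ambient temperature. Dopamine 57 uM final (EC100) as control.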
# Six1-Eya2 blk – qHTS Assay for Inhibitors of the Six1/Eya2 Interaction | AlphaScreen GST-Six1/His-Eya2 binding, biochemical; hits give low values; control for the full effect not named in the record | activity change, % (no concentration beside the values) | hit rate 0.56% among 360,000 | Homeobox protein SIX1 (Homo sapiens) + Protein phosphatase EYA2 (Homo sapiens), …; in the data active = activity change below about -65%; inconclusive = about -30% to -65%; inactive = above about -30%; note: % is set by controls: 0 for no effect and ±100 for the full control effect; compound concentration not given in the record
#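 GST-Six1 + His-Eya2 (5X stock: 250/500 nM); Tris pH 8.0, 300 mM NaCl, 0.05% BSA, 0.02% Tween 20; GSH donor/Ni acceptor beads; 1 h 37 °C dark; AlphaScreen readout.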
# Starred values were filed as active, the others as inactive; ? = inconclusive; nt = not tested or not shown; & = joins results of further samples; [ ] = remark or other dose.
no.	smiles	TRPV1 potentiator	Sfp PPTase inh	D2 PAM	PINK1 expr mod	Six1-Eya2 blk	CtBP-E1A inh	D2 agonist
1	CCOC(=O)C1=CCN(S(=O)(=O)c2ccccc2C)C1c1cccc(Br)c1 (stereo not given)	nt	nt	-5	2.9%	1	9	-5.4
2	CCOCCOC(=O)C1=C(C)NC2=C(C(=O)CC(c3cccs3)C2)C1c1ccsc1 (stereo not given)	-11	14%	-15	-0.5%[38.3 µM]	8	1	-5.6
3	CC(=O)c1ccc(N=Nc2ccc(N)cc2)cc1	0	3%	-14	1.4%	-15	nt	-12
4	Cc1[nH]c2ccccc2c1C(=O)C(C)OC(=O)c1ccc(Cl)nc1 (stereo not given)	-1	nt	-12	2.6%	1	4	0.3
5	COc1ccc(CC(=O)N2CCc3cc(OC)c(OC)cc3C2O)cc1OC (stereo not given)	-7	9%	12	-0.9%	3	nt	-1.6
6	COc1ccc(Cn2c(C)c(C)c(C#N)c2NC(=O)Nc2cccc(Cl)c2)cc1	-6	6%	-34	2.9%	21	0	-0.9
7	COc1ccc(C(=O)n2nc(C)cc2C)cc1OC	23	7%	-5	5.3%[38.3 µM]	4	-1	-1.3
8	Cc1nc2c(s1)sc1ccccc12	7	13%	29	0.3%	9	10	-2.6
9	Cc1ccc(C(=O)OC2CCCN(C)C2)cc1 (stereo not given)	-9	-26%	-14	5.7%	-1	nt	-5.1
10	C=CCOC(=O)C1=C(C)NC(=O)NC1c1ccc2c(c1)OCO2 (stereo not given)	27	11%	0	-1.0%	15	nt	-1.5
11	CN([C@@H](C(=O)OC(C)(C)C)c1ccccc1)S(=O)(=O)c1cccc(S(=O)(=O)N(C)[C@@H](C(=O)OC(C)(C)C)c2ccccc2)c1	10	4%	-9	3.9%	0	-1	-3.0
12	COc1ccc(CN2CCNC(=O)C2CC(=O)N(C)CCC2CCOCC2)c(OC)c1 (stereo not given)	-1	4%	-6	1.5%	4	7	-1.9
13	CC1(C)NC(=O)N(CC(=O)OCC(=O)NC(=O)c2ccccc2)C1=O	-1	nt	-21	1.3%	5	8	2.3
14	CCN1CCCC1CNC(=O)Cn1nc(C)n2c(cc3cc(C)ccc32)c1=O (stereo not given)	1	14%	-17	2.8%	-3	1	-3.2
15	Nc1cccc(-c2nc3ccc(C(=O)c4ccccc4)cc3[nH]2)c1	-7	3%	-3	2.0%	-5	nt	-2.5
16	O=C(CSc1ccccc1)Nc1ccncc1	28	8%	-5	-1.6%	2	-3	-1.1
17	CCOC(=O)N1CCN(C(=O)c2ccc3c(=O)n(CCC4=CCCCC4)c(=S)[nH]c3c2)CC1	-6	-3%	-9	8.2%	7	3	-2.7
18	C[C@@H](C(=O)NCC1CC1)[C@H]1C[C@]1(C)[C@H](NC(=O)OCc1ccccc1)c1ccccc1	-24	3%&12%	-1	1.1%	5	4	-1.1
19	CC(=O)OCCNC(=O)c1cc2ccccc2oc1=O	1	6%	0	0.2%	9	5	1.0
20	COc1ccc(-c2noc(C3CCCN(C(=O)c4ccccc4OC)C3)n2)cc1 (stereo not given)	-4	19%	2	1.7%	-7	-10	5.3
21	Cc1ccc(C)c(NC(=S)Nc2ccc(S(=O)(=O)Nc3ncccn3)cc2)c1	2	6%	-12	-0.6%	0	-1	-1.5
22	CC(=O)C1=C(C)Nc2ncnn2C1c1ccc(Cl)cc1 (stereo not given)	-4	7%	0	2.3%	6	-1	-0.8
23	COC(=O)c1cc(CSc2ncnc3sccc23)oc1C	0	-9%	0	1.0%	2	2	3.2
24	COc1ccc(-c2cc(C(F)(F)F)n3nc(C(N)=O)cc3n2)cc1	nt	nt	10	3.4%	-9	10	-0.5
25	CCOC(=O)CNC(=O)Cn1c(C)cc2ccccc2c1=O	25	3%	-3	-0.2%	3	1	-0.9
26	c1ccc(-c2csc(N3CCSCC3)n2)cc1	-12	-23%	-3	0.2%	-8	2	5.2
27	CN(C(=O)c1ccno1)c1nnc(-c2ccccn2)s1	1	17%	1	0.8%	?	?	-0.3
28	CC(=O)N[C@@H](Cc1c[nH]c2ccccc12)C(=O)OCC(=O)Nc1ccc(Cl)c(S(=O)(=O)N(C)C)c1	12	13%	-3	1.3%	-14	-21	4.3
29	CCOc1cccc2cc(C(=O)N3CCc4ccccc43)c(=O)oc12	-6	-10%	-1	9.1%[38.3 µM]	-1	0	-2.2
30	Nc1ccc2c(c1)Oc1ccccc1C=C2	1	-8%	-3	6.8%	-20	-14	0.1
31	Cc1cc(C)c2c(N)c(C(=O)NN3CC(=O)N(c4ccccc4)CC3=O)sc2n1	3	21%	2	-0.6%	-3	nt	-9.8
32	CCOc1ccc(C(C(=O)NC2CCCCC2)N(CCOC)C(=O)c2snc(C(N)=O)c2N)cc1 (stereo not given)	?	16%	1	0.6%	-2	1	5.7
33	O=C(Nc1cccc(-c2cccc(Cl)c2)c1)C1CCN(CC2CCOC2)CC1 (stereo not given)	4	4%	-15	4.1%	1	-5	2.2
34	Cc1ccc2[nH]c(C(=O)O)c(NC(=O)c3ccccc3[N+](=O)[O-])c2c1	?	-2%	-15	1.3%	-3	10	-2.5
35	COc1cc(C(=O)Nc2cccc(NC(=O)c3ccccc3)c2)cc(OC)c1OC	9	35%[activator]	10	-0.3%	2	23	-0.4
36	COCCCN1C(=O)C(=O)/C(=C(/O)c2ccc(OCC(C)C)cc2)C1c1cccnc1 (stereo not given)	0	-5%	-7	-0.9%	0	1	-3.5
37	COc1ccc([C@H]2CC(=O)C=C(c3ccc4c5c(cccc35)CC4)C2)cc1	-8	nt	-5	4.6%	-13	-10	-1.6
38	CCOC(=O)C1CCN(CC(=O)Nc2ccc(OC)c(Cl)c2)CC1	-2	-14%	-2	1.5%	5	-1	-1.9
39	Cc1onc(-c2ccccc2)c1C(=O)Nc1cccc(OC(C)C)c1	nt	11%	3	-0.5%	10	7	-0.2
40	COc1ccc(NC(=O)N2CCCC2)cc1OC	10	-7%	-2	-3.7%	4	-3	-0.3

# Whole records from above. Order of screens: TRPV1 potentiator, Sfp PPTase inh, D2 PAM, PINK1 expr mod, Six1-Eya2 blk, CtBP-E1A inh, D2 agonist
# CN(C(=O)c1ccno1)c1nnc(-c2ccccn2)s1 reads 1, 17%, 1, 0.8%, ?, ?, -0.3
# Cc1[nH]c2ccccc2c1C(=O)C(C)OC(=O)c1ccc(Cl)nc1 (stereo not given) reads -1, nt, -12, 2.6%, 1, 4, 0.3

# The list goes on:
no.	smiles	TRPV1 potentiator	Sfp PPTase inh	D2 PAM	PINK1 expr mod	Six1-Eya2 blk	CtBP-E1A inh	D2 agonist
41	Cc1nc(N2CCN(C(=O)c3ccco3)CC2)c2c3c(sc2n1)CCC3	-6	50µM*	-9	-2.8%	?	?	-3.3
42	CC(=O)Nc1ccc(/C=N/Nc2ccc(C(=O)c3c(C)cc4ccccn34)cc2[N+](=O)[O-])cc1	-7	-3%	-11	3.2%	-3	nt	-5.0
43	CCc1c(C)nc(SCC(=O)N2CCN(c3ccccc3)CC2)[nH]c1=O	-18	10%	-9	-2.8%	3	-1	-1.9
44	COc1ccc(C(=O)CSc2nc3nc(C)cc(C)n3n2)cc1OC	-11	0%	5	nt	-1	7	0.2
45	Cc1cccc(N2CCN(C(=O)c3cc(C)oc3C)CC2C)c1 (stereo not given)	-30	-1%	-8	28%	-23	11	1.6
46	Cn1c(-c2nonc2N)nc2ccccc21	1	3%	-2	-1.4%	0	nt	-1.6
47	Cc1cc(Cl)ccc1N=C1N=C(N)c2ccccc21	6	-5%	-10	-3.0%	0	9	-3.0
48	O=C(c1cncc(Br)c1)N1CCN(c2ccc(N3CCOCC3)nn2)CC1	0	0%	-5	2.7%	4	2	-2.9
49	CCc1c(C)sc(NC(=O)c2cc(-c3ccc(O)cc3)on2)c1C#N	-9	-3%	-1	6.7%	21	21	-2.5
50	CCOC(=O)C1CCN(C(=S)Nc2ccc(C)cc2)CC1	3	7%	-1	5.5%	-10	nt	-4.5
51	CSc1ncccc1C(=O)NNC(=O)c1csc(N2CCOCC2)n1	nt	nt	-13	1.8%	9	-24	-4.4
52	Cc1ccc(S(=O)(=O)N2[C@@H](c3ccccc3F)C(C(=O)O)=CC[C@H]2c2cccc(C)c2)cc1	?	nt	-10	-0.4%	0	nt	-2.3
53	c1ccc(CC2CCCNC2)cc1 (stereo not given)	12	11%	-3	0.6%	1	-14	-3.6
54	CN(C)C(CNC(=O)c1ccc(OCc2cn3ccccc3n2)cc1)c1ccco1 (stereo not given)	-4	nt	-2	-1.0%	-10	-6	-0.7
55	Cc1cc(NC(=O)CSc2nc3ccccc3s2)no1	20	-6%	1	0.7%	9	2	1.3
56	CCOc1ccccc1NC(=O)COC(=O)CC(C)(C)CC1=NS(=O)(=O)c2ccccc2N1	-9	13%	-30	1.6%&7.7%	0	5	-4.4

# 5 compounds already listed, ordered by length of the SMILES, descending.
no.	smiles	TRPV1 potentiator	Sfp PPTase inh	D2 PAM	PINK1 expr mod	Six1-Eya2 blk	CtBP-E1A inh	D2 agonist
17	CCOC(=O)N1CCN(C(=O)c2ccc3c(=O)n(CCC4=CCCCC4)c(=S)[nH]c3c2)CC1	-6	-3%	-9	8.2%	7	3	-2.7
12	COc1ccc(CN2CCNC(=O)C2CC(=O)N(C)CCC2CCOCC2)c(OC)c1 (stereo not given)	-1	4%	-6	1.5%	4	7	-1.9
1	CCOC(=O)C1=CCN(S(=O)(=O)c2ccccc2C)C1c1cccc(Br)c1 (stereo not given)	nt	nt	-5	2.9%	1	9	-5.4
29	CCOc1cccc2cc(C(=O)N3CCc4ccccc43)c(=O)oc12	-6	-10%	-1	9.1%[38.3 µM]	-1	0	-2.2
9	Cc1ccc(C(=O)OC2CCCN(C)C2)cc1 (stereo not given)	-9	-26%	-14	5.7%	-1	nt	-5.1
